HNF4A DNA FP: change in binding of human HNF4 alpha to DNA; P41235; HNF4a-FITC DNA binding, fluorescence polarization, 1 h; hit rate 0.3% among 360,000; activity change, % at 10 µM; in the data active means activity change above about 30%, passing the limit was not always enough;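 further: controls were the assay level and a saturating level of protein; the project sought stronger binding though the title names inhibitors; some compounds called inactive have numbers as strong as hits; positive values seem to mean higher polarization but the record does not say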
Target sequence (P41235 whole entry, looked up): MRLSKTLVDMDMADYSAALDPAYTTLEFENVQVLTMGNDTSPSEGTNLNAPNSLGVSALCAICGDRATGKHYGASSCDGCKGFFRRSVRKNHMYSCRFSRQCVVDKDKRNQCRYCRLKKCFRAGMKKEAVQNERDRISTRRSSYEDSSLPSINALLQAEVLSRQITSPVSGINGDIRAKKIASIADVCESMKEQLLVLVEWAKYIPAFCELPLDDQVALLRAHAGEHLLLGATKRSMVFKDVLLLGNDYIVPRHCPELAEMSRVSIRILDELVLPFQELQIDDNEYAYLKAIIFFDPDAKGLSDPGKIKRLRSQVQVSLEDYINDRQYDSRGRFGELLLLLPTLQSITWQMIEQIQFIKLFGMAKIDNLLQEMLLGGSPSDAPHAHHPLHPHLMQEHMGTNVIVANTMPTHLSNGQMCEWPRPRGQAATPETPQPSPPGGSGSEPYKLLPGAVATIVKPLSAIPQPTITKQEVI
Vif TR-FRET: inhibitors of Vif binding to APOBEC3G peptide, primary screen, biochemical, TR-FRET, GST-Vif 1-94, biotin-A3G peptide, dose response retest (AID 1117319). TR-FRET GST-Vif / biotin-A3G peptide binding; higher % means a stronger effect; test concentration not given here; strong numbers were not always called active. one-dose inhibition, %; IC50 in µM for titrated hits. hit rate 0.57% among 260,000;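 active means above the screen mean plus three standard deviations and confirmed in dose response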;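 further: Vif residues 1-94 fused to GST binding biotinylated APOBEC3G peptide 110-148; 0% = full assay without inhibitor and 100% = GST in place of GST-Vif; retest series ran down from 100 µM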
Numbers without * were called inactive.

Screening O=C(CN1CCN(Cc2ccccc2)CC1)Nc1cccc(Cl)c1Cl returned HNF4A DNA FP 4.1 and Vif TR-FRET -8%.
CC(OC(=O)c1cccc(S(=O)(=O)N2CCOCC2)c1)C(=O)NCC1CCCCC1 (stereo not given) was read as HNF4A DNA FP -0.6 and Vif TR-FRET 10%.
`CC(C)CC1C(=O)N(Cc2cn(CCC3OCCO3)nn2)CCS(=O)(=O)N1Cc1ccc(-c2cccc(CO)c2)cc1` (stereo not given) gave HNF4A DNA FP -1.8 and Vif TR-FRET -3%.
`C=CCn1nc(C(=O)N2CCOCC2)cc1-c1sc(NC(=O)c2ccccc2)nc1C` gave HNF4A DNA FP 5.9 and Vif TR-FRET -45%.
Screening CSCCC(NC(=O)COc1ccccc1)C(=O)N(C)Cc1c(F)cccc1Cl (stereo not given) returned HNF4A DNA FP -0.1 and Vif TR-FRET 0%.
For CC(=O)c1c(O)c(C)c(O)c2c1OC1=Cc3c(c(C)nn3C)C(=O)C12C (stereo not given) the results were HNF4A DNA FP 3.8 and Vif TR-FRET -2%.
O=C(COC(=O)c1ccc([N+](=O)[O-])o1)Nc1ccc2c(c1)OC(F)(F)O2 was read as HNF4A DNA FP 1.6 and Vif TR-FRET 4%.
O=C(CSc1nc(-c2ccccc2)c(-c2ccccc2)o1)N1CCCCC1 was read as HNF4A DNA FP 1.0 and Vif TR-FRET -2%.
For Cc1ccccc1OS(=O)(=O)c1cccc([N+](=O)[O-])c1 the results were HNF4A DNA FP 1.5 and Vif TR-FRET 3%.
`COc1cccc(CN(CCC(=O)O)Cc2cccc(OC)c2)c1` gave HNF4A DNA FP 0.8 and Vif TR-FRET -1%.

Continued, starting with the last 2 of the part before.
For Cc1ccccc1OS(=O)(=O)c1cccc([N+](=O)[O-])c1 the results were HNF4A DNA FP 1.5 and Vif TR-FRET 3%.
`COc1cccc(CN(CCC(=O)O)Cc2cccc(OC)c2)c1` gave HNF4A DNA FP 0.8 and Vif TR-FRET -1%.
For Cc1ccc(OCC(=O)Nc2cc(Cl)ccc2-n2cncn2)c(C)c1 the results were HNF4A DNA FP 3.4 and Vif TR-FRET -5%.
For O=C(COC(=O)CCS(=O)(=O)c1ccccc1)NNC(=O)c1ccc([N+](=O)[O-])cc1 the results were HNF4A DNA FP 3.9 and Vif TR-FRET -4%.
Cc1ccc([C@H]2C[C@@H](n3cc(C4CC4)nn3)[C@H](O)CN2C(=O)c2cccs2)cc1 was read as HNF4A DNA FP -4.9 and Vif TR-FRET -2%.
`CCCC1NC(=O)c2cccnc2-n2c1nc1cc(C)cc(C)c1c2=O` (stereo not given) gave HNF4A DNA FP -1.5 and Vif TR-FRET 4%.
Screening COc1ccc(C(=O)CC(Sc2ccccc2N)c2ccc(OC)cc2)cc1 (stereo not given) returned HNF4A DNA FP 0.4 and Vif TR-FRET 2%.
For CC(=O)Nc1ccc2sn(-c3ccccc3)c(=O)c2c1 the results were HNF4A DNA FP -0.9 and Vif TR-FRET 15%.
CCCCn1c(N)c(N(C)C(=O)CCCn2c(=O)oc3ccccc32)c(=O)[nH]c1=O was read as HNF4A DNA FP 0.9 and Vif TR-FRET 4%.
`CCCCN(C(=O)c1cc(S(=O)(=O)N2CCOCC2)ccc1N1CCOCC1)c1ccccc1` gave HNF4A DNA FP 4.3 and Vif TR-FRET 0%.
COc1cccc(/C=C/c2nc(S(=O)(=O)c3ccccc3)c(N3CCC(C(N)=O)CC3)o2)c1 was read as HNF4A DNA FP 1.1 and Vif TR-FRET -7%.
CCc1cc(-c2nnn(CCC3COCCO3)c2CC)cc(CC)c1-c1cn(Cc2ccc3ccccc3c2)nn1 (stereo not given) was read as HNF4A DNA FP 1.6 and Vif TR-FRET 0%.
`CN(Cc1ccccc1)C(=O)c1ncn2c1C(=O)N(C)CC2` gave HNF4A DNA FP 2.7 and Vif TR-FRET -1%.
Screening O=C(COc1ccc(Cl)cc1Cl)NCCN1CCCC1 returned HNF4A DNA FP 1.8 and Vif TR-FRET -2%.
Cc1ccc(NC(=O)CN2CCN(C(=O)C3CC3)CC2)c(F)c1 was read as HNF4A DNA FP -6.9 and Vif TR-FRET -5%.
Screening O=C(COC(=O)c1ccccc1Cl)Nc1cccc(S(=O)(=O)N2CCCCC2)c1 returned HNF4A DNA FP -2.3 and Vif TR-FRET -3%.
For CCCn1c(SC(C)C(=O)NC2CCCC(C)C2C)n[nH]c1=O (stereo not given) the results were HNF4A DNA FP 1.8 and Vif TR-FRET -3%.
Screening Cc1ccc(S(=O)(=O)N2CC3(O)CN(C(=O)OC(C)C)N(C(=O)OC(C)C)CC3(OC(=O)NCc3ccco3)C2)cc1 (stereo not given) returned HNF4A DNA FP -1.7 and Vif TR-FRET 7%.
Screening COc1ccc(CCC(=O)N2CCN(S(=O)(=O)c3ccc(OC)c([N+](=O)[O-])c3)CC2)cc1 returned HNF4A DNA FP -0.6 and Vif TR-FRET 2%.
For CC1(C)CC(Cc2cccc(C(F)(F)F)c2)N(C(=O)OC(C)(C)C)C1 (stereo not given) the results were HNF4A DNA FP 8.6 and Vif TR-FRET 1%.
`Cc1ccc(NC(=O)CCCN2C(=O)C(c3ccccc3)Oc3cccnc32)c(C)c1` (stereo not given) gave HNF4A DNA FP 1.5 and Vif TR-FRET -3%.
For CC(C)[C@H](N)C(=O)N[C@H]1CCC2C3CC=C4C[C@@H](O)CC[C@]4(C)C3CC[C@@]21C (stereo not given in full) the results were HNF4A DNA FP 4.0 and Vif TR-FRET 2%.
Screening NC(=S)NN=Cc1nccc2c(N)cccc12 returned HNF4A DNA FP -0.5 and Vif TR-FRET 1%.
CS(=O)(=O)c1ccc(Cl)c(NC(=O)c2ccc(-n3cncn3)c([N+](=O)[O-])c2)c1 was read as HNF4A DNA FP -3.9 and Vif TR-FRET -4%.
For Clc1ccccc1CNCc1ccc2c(c1)OCO2 the results were HNF4A DNA FP 0.1 and Vif TR-FRET -10%.
Cc1ccc([C@H]2C[C@H](O)[C@@H](n3cc(C4CC4)nn3)CN2C(=O)c2cccs2)cc1 was read as HNF4A DNA FP -3.8 and Vif TR-FRET -5%.
Cc1cc(=O)oc2cc(OCC(=O)NC3(C#N)CCCCC3)ccc12 was read as HNF4A DNA FP 1.5 and Vif TR-FRET -3%.
COCCCNC1=C(C#N)C(=O)NC(c2cccc([N+](=O)[O-])c2)S1 (stereo not given) was read as HNF4A DNA FP -3.5 and Vif TR-FRET 22%.
`NC(=O)C1CC(=O)N(c2ccc(OCc3ccc(Cl)c(Cl)c3)cc2)C1` (stereo not given) gave HNF4A DNA FP -4.2 and Vif TR-FRET -3%.
For COCCNC(=O)c1cc(S(=O)(=O)N(C)C2CCCCC2)ccc1Cl the results were HNF4A DNA FP 1.3 and Vif TR-FRET -2%.
`Cc1ccc(Cc2c(-c3ccc(Br)cc3)nc3ccc(Br)cn23)cc1` gave HNF4A DNA FP 8.5 and Vif TR-FRET -16%.
For O=C(c1ccc(S(=O)(=O)Cc2cc(F)ccc2F)c([N+](=O)[O-])c1)N1CCOCC1 the results were HNF4A DNA FP -2.1 and Vif TR-FRET 4%.
`CCOC(=O)N1CCN(C(=O)c2ccc(CS(=O)c3cccc(C)c3)o2)CC1` (stereo not given) gave HNF4A DNA FP -0.7 and Vif TR-FRET -8%.
Cc1ccc(NC(=O)CN(C)C(=O)c2cccc(S(=O)(=O)N3CCc4ccccc4C3)c2)cc1 was read as HNF4A DNA FP -2.4 and Vif TR-FRET 0%.
COC(=O)[C@H]1C[C@@]2(O)CN(S(=O)(=O)c3ccc(C)cc3)C[C@@]2(OC(=O)NCc2ccc(OC)c(OC)c2)C[C@H]1C(=O)OC was read as HNF4A DNA FP -0.5 and Vif TR-FRET -3%.
Screening COc1ccc(CNC(=O)COC(=O)CN2C(=O)C3CCCCC3C2=O)cc1 (stereo not given) returned HNF4A DNA FP 1.6 and Vif TR-FRET 1%.
COc1ccc(Br)cc1/C=N/NS(=O)(=O)c1ccccc1 was read as HNF4A DNA FP -4.7 and Vif TR-FRET 0%.
`COc1ccc(C(=O)C=Cc2ccc3c(c2)OCO3)cc1OC` gave HNF4A DNA FP -0.3 and Vif TR-FRET -8%.
`COc1cc(CNC[C@H]2O[C@@H](n3cc(C)c(=O)[nH]c3=O)C[C@@H]2O)ccc1OCc1cccc(Cl)c1` gave HNF4A DNA FP 5.2 and Vif TR-FRET 0%.
O=C(O)c1ccc([N+](=O)[O-])nc1 was read as HNF4A DNA FP -0.2 and Vif TR-FRET -7%.
`Cc1ccccc1-c1ccc2c(c1)O[C@@H](CN(C)Cc1ccc(C(=O)O)cc1)[C@@H](C)CN([C@H](C)CO)S2(=O)=O` gave HNF4A DNA FP 5.4 and Vif TR-FRET -10%.
Screening Cc1ccc([C@H]2N[C@]3(CCCN(Cc4ccc(C(F)(F)F)cc4)C3=O)[C@H]3C(=O)N(C)C(=O)[C@@H]23)cc1 returned HNF4A DNA FP -2.2 and Vif TR-FRET -2%.

Four compounds picked at random from those above:
COc1ccc(Br)cc1/C=N/NS(=O)(=O)c1ccccc1 was read as HNF4A DNA FP -4.7 and Vif TR-FRET 0%.
Screening COc1ccc(CNC(=O)COC(=O)CN2C(=O)C3CCCCC3C2=O)cc1 (stereo not given) returned HNF4A DNA FP 1.6 and Vif TR-FRET 1%.
Cc1ccc(NC(=O)CN(C)C(=O)c2cccc(S(=O)(=O)N3CCc4ccccc4C3)c2)cc1 was read as HNF4A DNA FP -2.4 and Vif TR-FRET 0%.
O=C(O)c1ccc([N+](=O)[O-])nc1 was read as HNF4A DNA FP -0.2 and Vif TR-FRET -7%.

Following part.
COc1nc(=O)n(C2C=CC(=O)O2)cc1F (stereo not given) was read as HNF4A DNA FP 1.9 and Vif TR-FRET 19%.
C[C@H](CO)N1C[C@H](C)[C@H](CN(C)C(=O)Nc2ccnc(N3CCOCC3)c2)OCc2cnnn2CCCC1=O was read as HNF4A DNA FP 1.3 and Vif TR-FRET -5%.
Screening CC(=O)Nc1cccc(NS(=O)(=O)c2ccc3c(c2)CCC(=O)N3)c1 returned HNF4A DNA FP 4.5 and Vif TR-FRET 0%.
Screening O=C1c2ccccc2C(=O)N1N=Cc1ccc2c(c1)OCO2 returned HNF4A DNA FP -0.2 and Vif TR-FRET -2%.
`C[C@@H]1CCCCO[C@H](CN(C)Cc2ccc(Cl)c(Cl)c2)[C@H](C)CN([C@@H](C)CO)C(=O)c2cc(NC(=O)Nc3ccc(F)cc3)ccc2O1` gave HNF4A DNA FP -5.6 and Vif TR-FRET 4%.
`Cc1ccc(S(=O)(=O)N2CCOCC2)cc1C(=O)OCC(=O)Nc1ccc(Cl)cn1` gave HNF4A DNA FP 3.7 and Vif TR-FRET -7%.
For COc1cccc(N2CCN(C(=O)c3ccc(OC)c(S(=O)(=O)NC4CC4)c3)CC2)c1 the results were HNF4A DNA FP -4.0 and Vif TR-FRET -9%.
CCCNC(=O)Cn1nc(-c2ccccc2OC)ccc1=O was read as HNF4A DNA FP 2.0 and Vif TR-FRET 1%.
Screening O=[N+]([O-])c1ccc(S(=O)(=O)Nc2ccc(-c3ccccc3)cc2)cc1 returned HNF4A DNA FP 4.1 and Vif TR-FRET -6%.
C[C@H]1CNC(=O)c2c(C(=O)Nc3cccc(Cl)c3)ncn21 was read as HNF4A DNA FP -1.2 and Vif TR-FRET 7%.

The list goes on, starting with the last two of the part before.
Screening O=[N+]([O-])c1ccc(S(=O)(=O)Nc2ccc(-c3ccccc3)cc2)cc1 returned HNF4A DNA FP 4.1 and Vif TR-FRET -6%.
C[C@H]1CNC(=O)c2c(C(=O)Nc3cccc(Cl)c3)ncn21 was read as HNF4A DNA FP -1.2 and Vif TR-FRET 7%.
Screening C#CCN(C[C@H]1[C@H](OC(=O)NCc2ccccc2)[C@H](OC(=O)NCc2ccccc2)C[C@H]2C(=O)N(c3ccccc3)C(=O)[C@@H]12)S(=O)(=O)c1ccc(C)cc1 returned HNF4A DNA FP -7.1 and Vif TR-FRET -9%.
Cc1ccc(S(=O)(=O)Nc2ccc3c(c2)C(=O)N([C@@H](C)CO)C[C@@H](C)[C@@H](CN(C)S(=O)(=O)c2ccccc2)OCCCC[C@H](C)O3)cc1 was read as HNF4A DNA FP -1.3 and Vif TR-FRET -5%.
For CC(C)(C)OC(=O)N1CCC(NC(=O)c2[nH]cnc2C(=O)Nc2ccccc2F)CC1 the results were HNF4A DNA FP 3.6 and Vif TR-FRET -2%.
Screening COc1ccc(NC(=O)C[C@H]2C(=O)N(CCc3ccccc3)C[C@@H]2CSC)cc1 returned HNF4A DNA FP 4.1 and Vif TR-FRET 1%.
For COc1cccc(C(C)=NNc2ccc([N+](=O)[O-])cc2[N+](=O)[O-])c1OC the results were HNF4A DNA FP 5.3 and Vif TR-FRET 0%.
For CC1Cc2ccccc2N1C(=O)CN1CCN(S(=O)(=O)c2ccc3c(c2)OCCCO3)CC1 (stereo not given) the results were HNF4A DNA FP 0.9 and Vif TR-FRET -5%.
For C[C@H](CO)N1C[C@H](C)[C@@H](CN(C)CC2CCOCC2)Oc2cc(C#Cc3ccccc3F)ccc2S1(=O)=O the results were HNF4A DNA FP 0.5 and Vif TR-FRET 6%.
Screening C[C@H](CO)N1C[C@H](C)[C@H](CN(C)S(=O)(=O)c2ccc(Cl)cc2)OCc2ccccc2-c2c(n(C)c3ccccc23)C1=O returned HNF4A DNA FP 2.4 and Vif TR-FRET 6%.
`CC1=C(C(=O)N(C)C)CC(CC(=O)NCC2CCCCC2)C(=O)N1Cc1ccc(C(C)(C)C)cc1` (stereo not given) gave HNF4A DNA FP -12 and Vif TR-FRET 5%.

Screening data from PubChem BioAssay.

Only part of the results is shown (hit frequency here may not be typical).
